Ecoli growth – E. coli growth inhibition | Escherichia coli growth, OD600, 23 h; stronger effect = lower value | OD600 absorbance (concentration not given with the values) | 0.21% of 330,000 active;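 active means OD600 absorbance below the run mean of sample wells minus 3.6 SD, in any replicate, cut at about 0.56 in these data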;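 further: stock transfer was 300 nL into about 60 µL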
UCH37 inh – human UCH37 deubiquitinating enzyme inhibition. Q9Y5K5. purified proteasome/UCH37, Ub-AMC cleavage fluorescence. inhibition, % (test concentration not listed). 0.33% of 330,000 active;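 active means mean of two replicates above 20%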;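 further: 0% = compound-free wells with enzyme and 100% = wells lacking proteasome; stock transfer was 100 nL into about 20 µL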
Target sequence (Q9Y5K5 whole entry, looked up): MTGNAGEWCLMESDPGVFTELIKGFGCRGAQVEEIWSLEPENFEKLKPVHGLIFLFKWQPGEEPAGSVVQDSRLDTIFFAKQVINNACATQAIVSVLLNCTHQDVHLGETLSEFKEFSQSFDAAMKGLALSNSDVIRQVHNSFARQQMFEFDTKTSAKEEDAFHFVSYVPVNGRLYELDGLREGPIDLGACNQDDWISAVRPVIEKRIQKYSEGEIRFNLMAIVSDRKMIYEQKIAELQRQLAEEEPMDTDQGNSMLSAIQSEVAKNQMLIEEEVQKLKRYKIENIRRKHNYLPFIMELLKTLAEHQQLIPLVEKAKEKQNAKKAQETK
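system = Proteasome-associated human UCH37 deubiquitinase | amount = 0.15 nM proteasome as dispensed | medium = pH 7.4 Tris-HCl (50 mM) with ovalbumin, ATP-MgCl2, DTT | incubation = 30 min preincubation with enzyme, 25 min cleavage at room temperature | detection = AMC fluorescence 355/460 nm | read-out basis = percent inhibition | controls = no-proteasome and no-compound wells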
FGF22 binding – shifts melting point of recombinant human FGF22; Q9HCT0; recombinant FGF22 thermal shift, SYPRO orange fluorescence; percent of sucrose octasulfate shift, DMSO zero; calls only at 9.99 µM; 1.5% of 340,000 active; AID 651658;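 active means melting point raised past a set limit in the mean and every replicate; inconclusive means no clear call; three in four hits are not shown here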
Target sequence (Q9HCT0 whole entry, looked up): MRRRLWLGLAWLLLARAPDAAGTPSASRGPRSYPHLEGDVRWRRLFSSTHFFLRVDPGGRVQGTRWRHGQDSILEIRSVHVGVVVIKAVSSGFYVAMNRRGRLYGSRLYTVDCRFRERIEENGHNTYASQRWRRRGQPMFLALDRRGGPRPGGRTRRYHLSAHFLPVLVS
RanGTP-Impb inh – disruptors of Ran-importin-beta complex formation – biochemical, FRET, CFP-Ran, YFP-importin-beta, homogeneous, primary screen. cell-free CFP-Ran/YFP-importin-beta FRET ratio. inhibition, % (test concentration not listed). 1.1% of 300,000 active. AID 2216;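 active means most replicates above 15%; inconclusive means exactly half above 15%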;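 further: 0% = DMSO wells and 100% = Ran loaded with GDP instead of GTP; wells of about 40 µL received 100 nL stock; the first replicate is given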
MLL AF4-AF9 inh – inhibitors of human MLL-AF4/AF9 interaction. AlphaScreen, biotin-AF4 peptide binding to FLAG-AF9. inhibition, % at 10 µM. 0.47% of 350,000 active. AID 651704;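 active means every replicate reaching a set inhibition limit, whatever the replicate mean, cut at about 25% in these data; inconclusive means mean inhibition reaches that limit but some replicates miss it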;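 further: 0% = plate neutral control median and 100% = total signal loss; the record names both 10 and 1 µM as test concentration; the first replicate is given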
Vif A3G – inhibitors of Vif binding to APOBEC3G peptide, primary screen, biochemical, TR-FRET, GST-Vif 1-94, biotin-A3G peptide, dose response retest (AID 1117319); TR-FRET GST-Vif / biotin-A3G peptide binding; higher % means a stronger effect; test concentration not given here; strong numbers were not always called active; inhibition, %; hits with a dose series show IC50 in µM; 0.57% of 260,000 active;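 active means above the screen mean plus three standard deviations and confirmed in dose response; inconclusive means results disagree or hit not tested in dose response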;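 further: Vif residues 1-94 fused to GST binding biotinylated APOBEC3G peptide 110-148; 0% = full assay without inhibitor and 100% = GST in place of GST-Vif; retest series ran down from 100 µM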
HNF4A DNA FP – change in binding of human HNF4 alpha to DNA; AID 1224865; activity change, % at 10 µM; HNF4a-FITC DNA binding, fluorescence polarization, 1 h; P41235; 0.3% of 360,000 active; in the data active means activity change above about 30%, passing the limit was not always enough;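 further: controls were the assay level and a saturating level of protein; the project sought stronger binding though the title names inhibitors; some compounds called inactive have numbers as strong as hits; positive values seem to mean higher polarization but the record does not say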
Target sequence (P41235 whole entry, looked up): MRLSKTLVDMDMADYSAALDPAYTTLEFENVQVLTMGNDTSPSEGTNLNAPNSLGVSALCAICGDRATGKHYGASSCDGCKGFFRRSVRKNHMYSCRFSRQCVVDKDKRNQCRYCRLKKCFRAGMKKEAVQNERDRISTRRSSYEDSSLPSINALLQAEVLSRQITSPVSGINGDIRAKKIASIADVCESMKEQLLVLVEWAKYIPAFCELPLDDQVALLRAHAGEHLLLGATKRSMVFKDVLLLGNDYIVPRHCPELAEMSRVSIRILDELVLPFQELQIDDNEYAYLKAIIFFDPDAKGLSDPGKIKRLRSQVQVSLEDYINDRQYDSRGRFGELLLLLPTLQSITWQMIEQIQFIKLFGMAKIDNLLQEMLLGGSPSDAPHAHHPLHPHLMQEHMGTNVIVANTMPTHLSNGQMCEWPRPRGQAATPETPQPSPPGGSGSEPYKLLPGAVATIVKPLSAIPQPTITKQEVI
Numbers without * were called inactive; i = inactive; ? = inconclusive; · = not tested or not shown; & = joins results of further samples.

compound	Ecoli growth	UCH37 inh	FGF22 binding	RanGTP-Impb inh	MLL AF4-AF9 inh	Vif A3G	HNF4A DNA FP
CC(=O)Nc1cccc(NC(=O)CSc2nnc(Cc3cccn3C)n2-c2ccc(C)cc2)c1	0.739	4.7	·	-5.4	·	11.7%&-1.8%	-1.7
Cc1cc(=O)oc(C)c1C(=O)N1CCCc2ccccc21	0.694	2.6	·	5.6	·	17.6%	3.4
CN1CC(=O)N(CC(=O)Nc2ccc(N3CCOCC3)cc2)C1=O	0.632	0.9	i	·	1.6	-19.5%	1.4
COc1ccccc1CNCc1ccc(OC)c(OC)c1OC	0.693	7.1	·	5.1	·	·	6.0
Cc1nn(C)c(C)c1CN(C)C(=O)CCCC(=O)O	0.698	2.8	·	-1.3	·	-2.7%	2.1
COc1ccc(N2CCN(CCCNC(=O)CCCn3c(=O)[nH]c4ccsc4c3=O)CC2)cc1	0.678	-0.2	·	2.4	·	3.3%	-0.8
c1ccc2c(c1)nc(N1CCOCC1)c1c3ccccc3[nH]c21	0.756	-20.9	i	0.0	13.0	1.7%	-0.6
O=C(c1ccccc1)N1CCN(Cc2c[nH]c3ccccc23)CC1	0.65	0.6	·	-1.1	·	5.6%	-2.5
Cc1csc2nc(SCC(=O)Nc3ccccc3F)[nH]c(=O)c12	0.703	0.7	i	2.4	0.1	·	-3.3
Cc1cc(NC(=O)CCc2ccc(-c3ccccc3)o2)no1	0.737	-27.9	i	1.5	0.0	-5.6%	1.2
O=C(Cn1ccc2cc(S(=O)(=O)N3CCCC3)ccc21)NCc1ccco1	0.665	2.6	i	0.9	-1.0	-7.4%	-1.2
CCOC(=O)c1nn(-c2ccc(Cl)cc2)c2nc(Nc3ccccc3)cc(=O)n12	0.717	0.9	·	-0.3	·	1.4%	2.1
CC(=O)c1ccc(N(CC(=O)NC2CCCC2)C(=O)CNC(=O)c2cccs2)cc1	0.703	2.9	·	2.3	1.2	·	-2.3
COc1ccc(/C=N/NC(N)=S)cc1OC(=O)c1ccccc1	·	·	·	6.2	·	-7.6%	1.7
Cc1ccc(CNC(=O)Cn2cnc3cc([N+](=O)[O-])ccc3c2=O)cc1	0.669	-3.7	i	-2.2	-2.1	14.8%	2.8

(list continues)
compound	Ecoli growth	UCH37 inh	FGF22 binding	RanGTP-Impb inh	MLL AF4-AF9 inh	Vif A3G	HNF4A DNA FP
O=C(NC(=S)Nc1ccc2oc(=O)ccc2c1)c1cccc(F)c1	·	·	i	?	-0.6	·	-2.9
CCCSc1nsc(NC(=O)c2cccnc2OCC)n1	0.716	3.5	i	-1.0	-1.3	·	-4.3
Cc1ccc(C)c(NC(=O)COC(=O)c2ccc3ccccc3n2)c1	0.618	0.7	i	·	-1.1	·	10.3
Cc1ccccc1NC(=O)c1ccc(N/N=C/c2ccccc2O)c([N+](=O)[O-])c1	·	·	·	2.2	·	2.4%	6.1
NC(=O)CC(NC(=O)Cc1cccc2ccccc12)c1ccc(NCCN2CCCC2)c([N+](=O)[O-])c1 (stereo unspecified)	0.676	-0.2	i	4.4	2.8	·	4.5
COc1ccc(CCC(=O)Nc2nc(-c3ccncc3)cs2)cc1	0.715	1.5	·	-1.7	·	-2.8%	·
COc1cccc(CNC(=O)c2ccc(CS(=O)(=O)Cc3ccc(C)cc3)o2)c1	0.708	1.1	i	-1.9	1.1	-1.5%	-1.9
CC1(c2nnc(-c3ccc(F)cc3)o2)CC(c2ccccc2)=NO1 (stereo unspecified)	0.635	-1.4	·	-1.4	·	-5.3%	-4.1
CCCC(=O)Nc1c2c(nn1-c1ccc(F)cc1)CS(=O)(=O)C2	0.643	0.8	i	-1.4	-6.9	-2.0%	0.6
Cc1ccc2ccccc2[n+]1CCCS(=O)(=O)[O-]	0.702	-5.5	·	4.7	·	18.4%	-3.5
CC(C)(C)c1cc(/C=N/NC(=O)C[n+]2ccccc2)cc(C(C)(C)C)c1O	·	·	i	-0.7	9.6	-4.1%	0.6
CC(OC(=O)CCN=C1NS(=O)(=O)c2ccccc21)C(=O)c1ccccc1 (stereo unspecified)	·	·	i	1.4	2.7	·	-3.2
N#Cc1ccccc1Sc1ccccc1C(=O)Nc1ccc2ccccc2c1	0.751	6.6	i	-0.8	-1.6	28.1%	-2.8
CC1(c2ccc(Cl)cc2Cl)NC(=O)N(CC(=O)NCCC2=CCCCC2)C1=O (stereo unspecified)	·	·	i	·	-0.4	-0.5%	7.2
O=C(O)CCCCCn1c(O)c(C=C2N=c3ccccc3=N2)sc1=S	0.71	7.7	i	-1.5	4.1	19.5%	5.2

More structures:
compound	Ecoli growth	UCH37 inh	FGF22 binding	RanGTP-Impb inh	MLL AF4-AF9 inh	Vif A3G	HNF4A DNA FP
COc1cc(C2Nn3c(nnc3-c3ccccc3OC)S2)ccc1O (stereo unspecified)	0.712	9.0	·	0.7	·	20.8%	0.7
N#Cc1ccc(OCC(=O)Nc2cc(S(=O)(=O)N3CCOCC3)ccc2N2CCOCC2)cc1	0.724	-3.2	i	0.0	3.9	10.4%	5.2
CCN1CCCC1CNC(=O)Cn1cccc1C(=O)c1ccccc1C (stereo unspecified)	0.715	3.0	·	4.4	·	3.8%	0.5
Fc1cccc(-c2c(-c3ccccc3)ncc3cc(F)ccc23)c1	0.669	1.1	i	·	·	·	-1.4
COc1ccc(/C=C/C(=O)OCC(=O)N(C)CC(=O)Nc2ccc(C)cc2)c(OC)c1	0.713	-2.1	i	·	1.2	·	-2.3
C=CCc1ccc(OCc2ccc(C(=O)O)o2)c(OC)c1	0.671	0.3	i	2.9	-0.8	-1.7%	-3.7
CSc1ccc(CNC(=O)C2Cc3cc(S(=O)(=O)N4CCCC4)ccc3N2C(C)=O)cc1 (stereo unspecified)	0.708	4.3	i	2.0	-0.2	2.4%	-1.4
Cc1onc(-c2ccccc2)c1C(=O)NCC1CCCO1 (stereo unspecified)	0.738	3.0	·	-10.0	·	0.0%	2.1
CC(C)(C)NCC(O)COc1ccccc1C(=O)CCc1ccccc1 (stereo unspecified)	0.651	0.5	·	-0.1	1.0	4.0%	0.8
O=C(Nc1ncc2c(n1)-c1ccccc1CC2)c1ccccc1	0.664	3.7	·	1.0	·	-2.5%	3.6
COc1ccc(-n2cc(CNCC3CCOCC3)c(-c3cccc(F)c3)n2)cc1	0.681	0.8	i	-0.7	3.1	12.2%	-5.6
C[C@H]1CN([C@@H](C)CO)C(=O)CCCn2cc(nn2)CO[C@@H]1CN(C)C(=O)Nc1cccc(F)c1	·	·	i	·	-9.3&-0.5	4.5%	-0.5
CC1CCN(C(=O)CSc2nnc(-c3ccco3)o2)CC1	0.704	3.9	i	-3.3	1.0	-1.1%	1.1
COC(=O)c1c[nH]c(=O)c2ccccc12	0.679	-38.7	i	3.0	-1.7	1.4%	-2.0
CC1CCc2sc(C(=O)NN)cc2C1 (stereo unspecified)	0.68	-2.1	i	-0.3	0.2	4.8%	2.6

(next part)
compound	Ecoli growth	UCH37 inh	FGF22 binding	RanGTP-Impb inh	MLL AF4-AF9 inh	Vif A3G	HNF4A DNA FP
Cc1cc(NC(=O)CSc2nc3cc(Cl)ccc3s2)no1	0.735	0.9	·	-1.5	·	?	1.7
CCOC(=O)c1c(/N=C/C2=C(O)CC(C)(C)CC2=O)sc(C)c1C	·	·	·	3.3	·	?	2.8
COc1cc(C#Cc2c(-c3cncn3C)n(C)c3ccc(Br)cc23)cc(OC)c1	0.709	0.2	i	·	10.9	·	-1.1
Cc1ccc(C(=O)NC2CC(C)(C)NC(C)(C)C2)cc1S(=O)(=O)N1CCCCC1	0.69	3.0	i	-0.5	0.9	7.2%	-2.0
N#CC(Cc1cccs1)c1nc2ccccc2[nH]1 (stereo unspecified)	·	·	i	·	1.9	2.8%	3.3
CCC(=O)N1CCc2cc(Br)cc(S(=O)(=O)NCc3ccccc3OC)c21	0.712	3.4	i	0.3	-1.7	·	-1.3
CCOC(=O)c1ccc(S(=O)(=O)n2c(=O)oc3ccccc32)cc1	0.656	1.7	i	·	1.0	-1.1%	-5.5
OCC1OC(n2cnc3c(NCc4ccco4)ncnc32)C(O)C1O (stereo unspecified)	·	·	i	·	-0.7	1.4%	3.4
O=C(N/N=C/c1ccc(Cl)cc1Cl)C(=O)NC1CC1	·	·	·	0.2	0.2	·	1.9
Cc1cccc(NC(=O)c2cc3c(=O)n4ccccc4nc3s2)c1	0.684	-224.7	i	-26.1	-2.7	·	44.9*
O=C(Nc1ccc(OC(F)(F)F)cc1)Oc1ccccc1N1CCOCC1	0.655	2.1	i	-0.2	-0.5	6.4%	0.6
Cc1cccc(Sc2nc(-c3ccccc3)ccc2C#N)c1	0.735	-11.8	·	-0.9	·	-21.1%	2.4
COc1ccc(CNC(=O)COC(=O)CCN2C(=O)C3CC=CCC3C2=O)cc1OC (stereo unspecified)	0.702	1.2	i	·	-7.7	·	-0.2
O=C(Nc1ccc(S(=O)(=O)N2CCOCC2)cc1)C1COc2ccccc2O1 (stereo unspecified)	0.693	5.8	·	1.3	·	-10.3%	-1.9
CCOC(=O)C1(CC2CC2)CCN(S(=O)(=O)C[C@]23CC[C@H](CC2=O)C3(C)C)CC1	0.671	6.1	i	1.1	-4.8	·	-5.1

(listing goes on)
compound	Ecoli growth	UCH37 inh	FGF22 binding	RanGTP-Impb inh	MLL AF4-AF9 inh	Vif A3G	HNF4A DNA FP
COc1cc(NC(=O)C2C3CCC(O3)C2C(=O)O)cc(OC)c1 (stereo unspecified)	0.716	7.2	i	0.0	-5.2	·	0.1
O=C(CSc1nnc(-c2cccs2)n1-c1ccccc1)N1CCCc2ccccc21	0.725	6.5	·	0.2	·	18.6%	0.9
O=C(N/N=C/c1ccccn1)c1ccc(NC(=O)c2ccccc2Cl)cc1	·	·	i	6.8	4.8	·	1.4
COC(=O)c1cc(C(=O)Nc2cc(C)ccn2)cc([N+](=O)[O-])c1	0.669	5.2	·	0.7	·	13.5%	1.3
CCN(CC)CC#CC(O)(c1ccccc1)c1ccccc1	0.673	2.5	i	-0.4	0.1	12.2%	2.5
Cc1cccc(N2CCN(C(=O)N3CCOCC3)CC2)c1C	0.676	-2.1	·	-2.8	-1.5	4.5%	-2.2
CN1CC(=O)N(CC(=O)NCc2ccc(F)cc2)c2ccccc2C1=O	0.711	6.0	·	-4.6	·	1.2%	4.3
COC(c1ccc(Cl)cc1)(c1ccc(Cl)cc1)C(Oc1nccc(C)n1)C(=O)O (stereo unspecified)	0.687	2.3	i	-0.6	-0.3	·	1.9
COc1cc(CNc2ccc3[nH]c(=O)[nH]c3c2)ccc1OCC(=O)NC(C)(C)C	0.677	0.1	·	6.1	·	?	1.5
COC(=O)c1ccsc1NC(=O)CN1CCN(c2ncccn2)CC1	0.58	1.2	i	0.9	-1.7	-6.4%	2.8
CCOc1ccc(NC(=O)Cn2nnc(C(=O)NCCc3ccc(OC)c(OC)c3)c2N)cc1	0.668	4.6	·	2.3	·	30.4%	-1.2
O=C(NC(c1ccccc1)c1ccccc1)c1ccc(=O)[nH]n1	0.706	6.5	i	3.8	-0.4	·	0.5
O=C(CSc1nccn1-c1ccc(Cl)cc1)N1CCCc2ccccc21	0.696	0.4	i	1.6	?	·	2.4
N/C(=N\OC(=O)Cc1ccccc1[N+](=O)[O-])c1cccnc1	·	·	·	1.2	-1.2	-4.3%	7.1
Cc1ccc2cc(CCNC(=O)c3ccc(Br)o3)c(=O)[nH]c2c1	0.7	-2.4	·	2.3	·	-0.5%	-0.7
CC1(C)NC(=O)N(CC(=O)OCC(=O)c2ccc(F)cc2)C1=O	·	·	i	3.8	-1.6	·	-1.8

Some of the compounds tested. The share of hits here may be higher or lower than overall.
